# KCNQ2 block: KCNQ2 potassium channel inhibitors, primary screen, cell-based, CHO-K1, FluxOR thallium flux, B-score (AID 2156) | O88943 | 20 min; active compounds read low; only compounds with negative scores are shown here; some inactives read as strong as hits | B-score at 10 µM | actives 1.1% (n = 310,000);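 active = fluorescence ratio B-score at most minus 3 library SDs, with starting brightness B-score within 2 library SDs, cut at about -5.5 in these data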
# Target sequence (O88943 whole entry, looked up): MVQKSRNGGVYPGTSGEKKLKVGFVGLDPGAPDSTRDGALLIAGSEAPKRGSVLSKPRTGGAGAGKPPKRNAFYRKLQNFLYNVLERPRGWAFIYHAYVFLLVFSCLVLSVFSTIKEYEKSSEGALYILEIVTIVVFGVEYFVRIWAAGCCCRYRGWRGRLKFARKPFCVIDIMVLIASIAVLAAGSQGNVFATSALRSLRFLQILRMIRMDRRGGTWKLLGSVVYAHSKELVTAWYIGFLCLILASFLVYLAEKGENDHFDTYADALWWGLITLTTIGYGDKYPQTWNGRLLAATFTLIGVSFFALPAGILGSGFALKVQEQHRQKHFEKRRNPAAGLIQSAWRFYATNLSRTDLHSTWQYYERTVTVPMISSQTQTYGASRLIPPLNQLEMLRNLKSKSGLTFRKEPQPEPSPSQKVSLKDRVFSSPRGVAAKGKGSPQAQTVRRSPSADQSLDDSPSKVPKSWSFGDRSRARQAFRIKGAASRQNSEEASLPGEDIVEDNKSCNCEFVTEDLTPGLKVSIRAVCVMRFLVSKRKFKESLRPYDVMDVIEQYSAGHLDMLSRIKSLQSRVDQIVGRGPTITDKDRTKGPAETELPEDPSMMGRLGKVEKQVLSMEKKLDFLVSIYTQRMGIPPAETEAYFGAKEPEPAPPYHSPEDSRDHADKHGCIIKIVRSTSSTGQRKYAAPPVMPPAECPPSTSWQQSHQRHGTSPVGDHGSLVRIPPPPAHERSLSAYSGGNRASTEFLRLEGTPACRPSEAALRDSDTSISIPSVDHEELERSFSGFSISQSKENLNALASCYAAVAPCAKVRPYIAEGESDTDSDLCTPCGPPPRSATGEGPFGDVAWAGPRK
# KCNQ2 block baseline: second read-out of KCNQ2 block, no call of its own (marks repeat the call); B-score; measured here: initial fluorescence intensity artifact check;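 brightness before thallium and not channel activity; 0 = typical well and far values either way flag optical interference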
# Starred values were filed as active, the others as inactive; i = inactive. Not all compounds are listed; rates above refer to the full screens.
# Screens in order: KCNQ2 block baseline | KCNQ2 block
Cc1ccc(-c2noc(C3CCCN(C(=O)C4CCCCC4)C3)n2)o1 (stereo unspecified)
    -1.63 | i
CC1=Nc2ccc(C)cc2N(Cc2ccccc2)C(=O)C1
    0.17 | i
CCN(CC)CCN=CC1=C(O)CNC1=O
    -0.8 | i
O=C1CC2(CCCC2)Oc2ccc(F)cc21
    -0.58 | i
COc1cccc(C2/C(=C(/O)c3ccc(F)cc3)C(=O)C(=O)N2CCN(C)C)c1 (stereo unspecified)
    0.23 | i
Cc1ccc(C(=O)Nc2ccc(S(=O)(=O)N3CCOCC3)cc2)cc1Br
    1.85 | i
CN(C)c1ccc(/C=C2\SC(N3CCCCC3)=NC2=O)cc1
    3.72 | i
CCOc1cc(/C=C(/C#N)c2nc3ccccc3[nH]2)ccc1Oc1ccc([N+](=O)[O-])cn1
    1.55 | i
c1nc(N2CCOCC2)c2c3c(sc2n1)CCCC3
    0.56 | i
COc1cc(/C=C(\C#N)C(=O)NCC2CCCO2)ccc1O (stereo unspecified)
    0.42 | i
O=C(NCCc1ccc(Cl)cc1)c1ccc2nccnc2c1
    2.86 | i
COc1ccc(C2c3c(noc3C)CC(C)(O)C2C(C)=O)cc1 (stereo unspecified)
    -0.39 | i
Cc1ccc(C)c(C(=O)NCc2ccncc2)c1
    -0.32 | i
COc1ccc(-c2cc(C(=O)Nc3cccnc3)c3ccccc3n2)cc1OC
    -1.77 | i
CC(C)(C)N1CC(c2nc3ccccc3n2Cc2ccccc2)CC1=O (stereo unspecified)
    3.97 | i
COCCN1CCC(CNCc2cn[nH]c2-c2ccc(C)c(C)c2)C1 (stereo unspecified)
    -0.07 | i
Cc1ccc(NC(=S)N(CCCN2CCOCC2)Cc2ccco2)cc1C
    -0.75 | i
COCc1cc(C)n(CC(=O)Nc2ccc(N3CCOCC3)c(Cl)c2)c(=O)c1C#N
    -0.59 | i
COc1ccc(-c2nnc(SCC(=O)N3c4ccccc4Sc4ccccc43)o2)cc1
    0.62 | i
COc1ccc(S(=O)(=O)N(C)C2(C)CCS(=O)(=O)C2)cc1OC (stereo unspecified)
    0.72 | i

# Later entries.
# Screens in order: KCNQ2 block baseline | KCNQ2 block
O=C(C1CCCC1)N1CCCC(Nc2ccccc2)C1 (stereo unspecified)
    1.68 | i
CC(=O)c1sc2nc(SCC(=O)NCCc3ccccc3)[nH]c(=O)c2c1C
    -0.44 | i
CC12CCC(c3nnc(SCC(=O)Nc4cccc5ccccc45)nc31)C2(C)C (stereo unspecified)
    0.03 | i
CC(=O)c1cccc(NC(=O)C(OC(=O)c2ccccc2NS(=O)(=O)c2cccs2)c2ccccc2)c1 (stereo unspecified)
    -3.01 | i
O=C(Nc1ccccc1Cl)c1cccc(NC(=O)C2C3CC4OC(=O)C2C4C3)c1 (stereo unspecified)
    -0.06 | i
CC1=NN(c2ccc(C)cc2C)C(=O)C1C(c1cccc(O)c1)C1C(=O)N(c2ccc(C)cc2C)N=C1C (stereo unspecified)
    -0.69 | i
Cc1ccccc1NC(=O)c1ccc2c(c1)N(C)CCS2
    0.43 | i
CCOC(=O)N1CCN(C(=O)c2ccc(OC(C)=O)cc2)CC1
    2.29 | i
COC(=O)c1ccc(CSc2nnnn2-c2ccc(C)cc2C)o1
    -1.57 | i
O=C(NCCn1cc(SCc2ccccc2F)c2ccccc21)c1c(F)cccc1F
    0.02 | i
COc1ccc(/C=N/NC(=O)C(=O)NCc2cccnc2)cc1OC
    1.34 | i
COc1ccc(NC(=O)c2cccc(S(=O)(=O)N3CCCCCC3)c2)cc1
    -1.1 | i
COc1ccc(OC)c(C(c2nnnn2C2CCCC2)N2CCc3ccccc3C2)c1 (stereo unspecified)
    -0.38 | i
CCCn1c(SCC(=O)N2c3ccccc3Sc3ccccc32)nc2c1c(=O)n(C)c(=O)n2C
    0.59 | i
COc1ccccc1NC(=S)NC1CCCCC1
    -0.34 | i
O=C(COc1ccccc1Br)c1ccc2c(c1)OCO2
    -1.2 | i
COc1cc(C(=O)N2c3ccccc3CC2C)cc(OC)c1OC (stereo unspecified)
    0.9 | i
COc1ccc(C(O)Cn2cc([N+](=O)[O-])nc2C)cc1 (stereo unspecified)
    -0.01 | i
CC(=O)c1ccc(NC(=O)c2cc(Cl)nc3ccccc23)cc1
    -0.46 | i
COc1ccccc1Nc1nccc(N(C)C)c1C#N
    1.29 | i

# Quoted from the listing:
# KCNQ2 block baseline with COC(=O)c1ccc(CSc2nnnn2-c2ccc(C)cc2C)o1 → -1.57
# KCNQ2 block baseline with COc1ccc(/C=N/NC(=O)C(=O)NCc2cccnc2)cc1OC → 1.34

# (listing goes on)
# Screens in order: KCNQ2 block baseline | KCNQ2 block
COc1ccc2c(c1)CCc1c(C(=O)Nc3cc(C)n(Cc4ccc(Cl)cc4)n3)noc1-2
    -0.64 | i
O=C(Nc1cccc(Br)c1)c1ccc2snnc2c1
    1.67 | i
CCOC(=O)c1c(C)[nH]c(C)c1C(=O)COC(=O)CNC(=O)C1CCCCC1
    0.25 | i
CCCCn1c(N)c(N(Cc2ccccc2OC)C(=O)CN2C(=O)NC3(CCCC3)C2=O)c(=O)[nH]c1=O
    0.75 | i
COc1ccc(C(C)=O)cc1Cn1nnc(-c2ccccc2Br)n1
    1.7 | i
O=C(NC(=S)Nc1ccccc1N1CCCCC1)c1cccs1
    -0.9 | i
CCCCCCc1cc2cc(C(=O)NC)c(=N)oc2cc1O
    17.7 | i
CN1C(=O)NC(c2ccccc2Cl)C2=C1CC(C)(C)CC2=O (stereo unspecified)
    0.68 | i
O=C(NCc1cccs1)C1CC(c2ccc(Cl)c(Cl)c2)=NO1 (stereo unspecified)
    -1.33 | i
CCOC(=O)CNC(=O)CNC(=O)Cn1ccc2ccccc2c1=O
    -0.2 | i
Cc1ccc(S(=O)(=O)N2CCC(=O)N(CCOCc3ccccc3)CC2)cc1
    0.19 | i
CCOc1ccc(NC(=S)Nc2ccc3nsnc3c2)cc1
    0.78 | i
COC(=O)c1cc(CNC(=O)CCCSc2ccccc2)ccc1OC
    1.57 | i
CSc1ncccc1C(=O)NCCc1ccccc1F
    -0.88 | i
COc1ccc(C)cc1NC(=O)CSc1nnc(COc2ccc(Cl)cc2)n1Cc1ccco1
    3.09 | i
CCOC(=O)c1c(C)[nH]c(C(=O)N/N=C\c2ccccc2Cl)c1C
    -1 | i
O=C(O)c1ccccc1C(=O)N1N=C(c2ccccc2)CC1c1ccccc1O (stereo unspecified)
    0.19 | i
COc1ccc(N2CCN(S(=O)(=O)c3ccc(-c4cc(C)no4)s3)CC2)cc1
    1.33 | i
O=c1[nH]cnc2c1ncn2[C@@H]1O[C@H](CO)[C@@H](O)[C@H]1O
    -0.01 | i
Cc1nonc1OCC(C)(COc1nonc1C)NC(=O)c1ccc(Cl)cc1
    -0.08 | i

# (list continues)
# Screens in order: KCNQ2 block baseline | KCNQ2 block
O=C(O)C1CCN(c2ccc(S(=O)(=O)N3CCOCC3)cc2[N+](=O)[O-])CC1
    -0.14 | i
COC(=O)c1ccc(COC(=O)C23CC4CC(CC(O)(C4)C2)C3)o1
    0.58 | i
N#Cc1nc(-c2ccco2)oc1NCc1cccnc1
    0.44 | i
COc1ccc(CCNS(=O)(=O)c2ccc([N+](=O)[O-])cc2)cc1OC
    0.08 | i
O=C(O)c1cn(-c2ccc(N3CCCC3)c(F)c2)c2c(F)c(F)c(F)cc2c1=O
    -0.09 | i
COc1ccc(CNc2nc(NCc3ccc(OC)cc3)n(C(=O)c3ccncc3)n2)cc1
    -3.25 | i
O=C(Cn1ncc2c([nH]c3ccccc32)c1=O)Nc1ccc(F)cc1F
    -0.03 | i
NC(=O)CSc1nnc(NC(=O)c2ccc(Br)o2)s1
    1.92 | i
CC(C)C(NC(=O)c1ccccc1)C(=O)N1CCCCCC1 (stereo unspecified)
    0.41 | i
Cc1cccc(NC(=O)c2ccc3c(c2)OCCO3)c1
    -0.91 | i
CCOC(=O)c1sc2nc(C)nc(Nc3ccc(OC)cc3)c2c1C
    0.65 | i
N=c1sccn1CC(=O)NCc1ccc(Cl)cc1Cl
    -0.08 | i
Cc1cccc(-c2cc(C(=O)Nc3cccnc3)c3ccccc3n2)c1
    0.01* | -8.01*
COc1ccc(Cl)cc1C(=O)Nc1cc(=O)n(C)c(=O)n1C
    -0.82 | i
CN(C(=O)Cc1csc(-c2ccccc2)n1)c1c(N)n(Cc2ccccc2)c(=O)[nH]c1=O
    2.4 | i
Cc1cc(C(=O)COC(=O)c2ccc(O)cc2)c(C)n1-c1ccccc1F
    -2.03 | i
Cc1ccc2sc(N(CCCN(C)C)C(=O)CCS(=O)(=O)c3ccccc3)nc2c1C
    0.01 | i
CCCCn1c(=N)c(S(=O)(=O)c2ccc(Br)cc2)cc2c(=O)n3cccc(C)c3nc21
    1.88 | i
Cn1ccnc1SCC(=O)NC12CC3CC(CC(C3)C1)C2
    -1.64 | i
CC(C)(C)c1c(Cl)c(O)c(-c2ccccc2)c(=O)n1-c1ccccc1
    1.19 | i

# (more compounds)
# Screens in order: KCNQ2 block baseline | KCNQ2 block
Cc1ccc(CNC(=O)CN2C(=O)CSc3ccc(S(=O)(=O)N4CCC(C)CC4)cc32)cc1
    1.39 | i
O=C(NCCc1ccc(Cl)cc1)c1cc(-c2ccncc2)nc2ccccc12
    0.06 | i
O=C1CC(=C2c3ccccc3-c3ccccc32)C(=O)N1CCCCN1CCN(c2ccccc2)CC1
    0.25 | i
Cc1nc(S(=O)(=O)NC2CCCCC2)c(C#N)c(C)c1Cl
    0.08 | i
COc1cccc(CNC(=O)CCC2CCCN(C(=O)c3ccc(OC)c(F)c3)C2)c1 (stereo unspecified)
    0.01 | i
O=[N+]([O-])c1ccc(Cl)cc1Sc1nc2ccccc2o1
    0.46 | i
CN(Cc1cccnc1)Cc1c(C(=O)N2CCc3ccccc3C2)nc2ccc(Cl)cn12
    -0.26 | i
Cc1ccc(N2C(=O)C3N=NN(CC(=O)N4N=C(c5cccc6ccccc56)CC4c4ccccc4)C3C2=O)cc1 (stereo unspecified)
    0.87 | i
CC(=O)N/C(=C\c1ccccc1)C(=O)OCC(=O)c1ccccc1
    0.67 | i
Cc1cccc(OCC(=O)NC2CC(C)(C)NC(C)(C)C2)c1
    0.67 | i
CCN1C(=O)/C(=C/N(C)C)c2ccccc21
    0.07 | i
CCOC(=O)Cn1c(=O)sc2ccccc21
    -0.61 | i
Cc1nc(CSc2ccc(Cl)cc2)cs1
    0.16 | i
O=C(CNC(=O)C1CCCCC1)Nc1ccccc1
    0.29 | i
CC(C)CC(C(=O)NC(C)(C)C)N(Cc1ccccc1Cl)C(=O)c1snc(C(N)=O)c1N (stereo unspecified)
    0.68 | i
N#Cc1c(N)n(-c2ccc(C(=O)O)cc2)c2nc3ccccc3nc12
    1.6 | i
Cc1ccc(-c2csc(N=C(N)N)n2)cc1
    -0.06 | i
Cn1c(SCC(=O)Nc2cccc3ccccc23)nc(O)cc1=O
    2.44 | i
O=C1CC(c2ccc(S(=O)(=O)NCCOc3ccccc3)cc2)CN1 (stereo unspecified)
    -1.44 | i
Nc1c(NCc2ccccc2F)c(=O)[nH]c(=O)n1Cc1ccccc1
    0.44 | i

# (more compounds)
# Screens in order: KCNQ2 block baseline | KCNQ2 block
CC12CCC(C(=O)NC(c3ccccc3)c3ccccc3)(OC1=O)C2(C)C (stereo unspecified)
    0.07 | i
O=C1CSC(=S)N1c1ccc(Cl)c(Cl)c1
    -2.34 | i
O=C(c1ccc(COCC(F)(F)F)cc1)N1CCN(c2ccccn2)CC1
    0.7 | i
CC(C)CCN1CCN(Cc2ccc(Oc3ncccn3)cc2)CC1CCO (stereo unspecified)
    0.03 | i
O=C(c1ccc(C(=O)N2CCOCC2)s1)N1CCOCC1
    0.06 | i
COc1ccc(C(=O)NCc2ccc(C)cc2)cc1S(=O)(=O)N1CCCc2ccccc21
    -1.61 | i
Cc1cc(C(=O)COC(=O)C2CCN(C(=O)c3ccc(Cl)cc3)CC2)c(C)n1CC1CCCO1 (stereo unspecified)
    0.67 | i
COc1ccccc1NS(=O)(=O)c1cc(C(=O)N2CC(C)CC(C)C2)ccc1C (stereo unspecified)
    -0.01 | i
CC1=C(C)CC(C(=O)NC(C)CCc2ccccc2)C(C(=O)O)C1 (stereo unspecified)
    1.79 | i
CCOC(=O)C1(CCOc2ccccc2)CCN(Cc2ccc(F)c(OC)c2)CC1
    -1.02 | i
COc1ccccc1NC(=O)C12CC3CC(C1)CC(c1ccc(C)cc1)(C3)C2
    1.64 | i
CC(C)N1CCN(CCCc2ccccc2)CC1CCO (stereo unspecified)
    -0.84 | i
O=C(N/N=C/c1ccccc1OC(F)F)c1cc(-c2ccncc2)nc2ccccc12
    -1.13 | i
COc1ccc(C(=O)Cc2cc(OC)c(OC)cc2[N+](=O)[O-])cc1
    -1.7 | i
O=C(CN1CCc2cc3c(cc2C1)OCCCO3)Nc1cccc(Br)c1
    -0.03 | i
CCOc1cc(CNc2ccc(S(N)(=O)=O)cc2)ccc1OCC(=O)NC(C)(C)C
    0.7 | i
COc1ccccc1CNC(=O)CSc1ccc(Br)cc1
    0.74 | i
Cc1nc2scc(-c3ccccc3)c2c(=O)n1/N=C/c1ccco1
    1.06* | -6.42*
CC(CC(=O)Nc1ncc([N+](=O)[O-])s1)c1ccccc1 (stereo unspecified)
    -0.17 | i

# 7 records picked at random from those above:
# Screens in order: KCNQ2 block baseline | KCNQ2 block
COc1ccc(C(=O)NCc2ccc(C)cc2)cc1S(=O)(=O)N1CCCc2ccccc21
    -1.61 | i
O=C1CSC(=S)N1c1ccc(Cl)c(Cl)c1
    -2.34 | i
CCOC(=O)C1(CCOc2ccccc2)CCN(Cc2ccc(F)c(OC)c2)CC1
    -1.02 | i
CC(C)CCN1CCN(Cc2ccc(Oc3ncccn3)cc2)CC1CCO (stereo unspecified)
    0.03 | i
CC12CCC(C(=O)NC(c3ccccc3)c3ccccc3)(OC1=O)C2(C)C (stereo unspecified)
    0.07 | i
O=C(c1ccc(C(=O)N2CCOCC2)s1)N1CCOCC1
    0.06 | i
COc1ccccc1NC(=O)C12CC3CC(C1)CC(c1ccc(C)cc1)(C3)C2
    1.64 | i

# Assay outcomes as filed in PubChem.
